# HNF4A DNA FP – change in binding of human HNF4 alpha to DNA. P41235. HNF4a-FITC DNA binding, fluorescence polarization, 1 h. activity change, % at 10 µM. hit rate 0.3% among 360,000; in the data active means activity change above about 30%, passing the limit was not always enough;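 further: controls were the assay level and a saturating level of protein; the project sought stronger binding though the title names inhibitors; some compounds called inactive have numbers as strong as hits; positive values seem to mean higher polarization but the record does not say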
# Ecoli rRNA inh – inhibitors of bacterial rRNA selective over humanized ribosomes. hit rate 1.6% among 350,000. E. coli WT GFP vs humanized-ribosome RFP mutants, fluorescence, 24 h; active compounds read low; DMSO median 0, no signal -100. GFP signal change (wild-type ribosome), % (test concentration not listed);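 active means significant combined selectivity score with lowered wild-type GFP, culture density cut under 30%, mutant RFP and density less affected; inactive means any of these conditions unmet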; further: one replicate is shown; some compounds called inactive have numbers as strong as hits
# AF4-AF9 inh – inhibitors of human MLL-AF4/AF9 interaction. inhibition, % at 10 µM. hit rate 0.47% among 350,000. P42568. AlphaScreen, biotin-AF4 peptide binding to FLAG-AF9;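 active means every replicate reaching a set inhibition limit, whatever the replicate mean, cut at about 25% in these data; inconclusive means mean inhibition reaches that limit but some replicates miss it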;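 further: 0% = plate neutral control median and 100% = total signal loss; the record names both 10 and 1 µM as test concentration; the first replicate is given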
# Target sequence (P42568 whole entry, looked up): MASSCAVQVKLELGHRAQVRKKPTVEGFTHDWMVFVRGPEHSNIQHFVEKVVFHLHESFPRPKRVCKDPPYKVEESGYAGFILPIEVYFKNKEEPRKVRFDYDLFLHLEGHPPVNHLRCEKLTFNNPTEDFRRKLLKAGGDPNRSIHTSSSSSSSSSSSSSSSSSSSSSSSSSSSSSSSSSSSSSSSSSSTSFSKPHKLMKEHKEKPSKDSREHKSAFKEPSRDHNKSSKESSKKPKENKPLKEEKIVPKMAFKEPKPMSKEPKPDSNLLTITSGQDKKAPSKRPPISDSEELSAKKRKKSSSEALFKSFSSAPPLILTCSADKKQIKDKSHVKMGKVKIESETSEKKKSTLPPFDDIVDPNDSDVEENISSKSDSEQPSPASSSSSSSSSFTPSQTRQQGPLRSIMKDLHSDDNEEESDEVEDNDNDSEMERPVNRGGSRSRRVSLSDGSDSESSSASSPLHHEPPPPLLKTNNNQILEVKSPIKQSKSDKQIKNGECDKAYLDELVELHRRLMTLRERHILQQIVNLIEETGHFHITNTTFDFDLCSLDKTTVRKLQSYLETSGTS
# FGF22 binding – shifts melting point of recombinant human FGF22; hit rate 1.5% among 340,000; Q9HCT0; calls only at 9.99 µM; recombinant FGF22 thermal shift, SYPRO orange fluorescence; percent of sucrose octasulfate shift, DMSO zero; AID 651658;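 active means melting point raised past a set limit in the mean and every replicate; inconclusive means no clear call; three in four hits are not shown here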
# Target sequence (Q9HCT0 whole entry, looked up): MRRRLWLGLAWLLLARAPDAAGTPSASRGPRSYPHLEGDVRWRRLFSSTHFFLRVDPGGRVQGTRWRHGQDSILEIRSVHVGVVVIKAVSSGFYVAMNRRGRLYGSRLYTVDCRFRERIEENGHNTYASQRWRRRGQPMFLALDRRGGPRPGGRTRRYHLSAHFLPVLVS
# Ecoli growth – inhibitors of Escherichia coli growth; OD600, 23 h; active compounds read low; OD600 absorbance (no concentration beside the values); hit rate 0.21% among 330,000; AID 1053175;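 active means OD600 absorbance below the run mean of sample wells minus 3.6 SD, in any replicate, cut at about 0.56 in these data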;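 further: stock transfer was 300 nL into about 60 µL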
# Vif A3G – HIV-1 Vif–A3G interaction blockers – biochemical, TR-FRET, GST-Vif 1-94, biotin-A3G peptide, dose response retest, primary screen (AID 1117319); TR-FRET GST-Vif / biotin-A3G peptide binding; higher % means a stronger effect; test concentration not given here; strong numbers were not always called active; one-dose inhibition, %; IC50 in µM for titrated hits; hit rate 0.57% among 260,000;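 active means above the screen mean plus three standard deviations and confirmed in dose response; inconclusive means results disagree or hit not tested in dose response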;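 further: Vif residues 1-94 fused to GST binding biotinylated APOBEC3G peptide 110-148; 0% = full assay without inhibitor and 100% = GST in place of GST-Vif; retest series ran down from 100 µM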
# ALR inh – blocks human ALR sulfhydryl oxidase activity. hit rate 3.8% among 290,000. inhibition, % (test concentration not listed). P55789. AID 485317. purified ALR, DTT oxidation, H2O2 HRP-luminol luminescence;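 active means mean and each replicate at 75% or more; inconclusive means only one of the two met; inactive means neither met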;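 further: stock transfer was 7.5 nL into about 7.5 µL; 0% = neutral wells and 100% = wells with inactivated enzyme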
# Target sequence (P55789 whole entry, looked up): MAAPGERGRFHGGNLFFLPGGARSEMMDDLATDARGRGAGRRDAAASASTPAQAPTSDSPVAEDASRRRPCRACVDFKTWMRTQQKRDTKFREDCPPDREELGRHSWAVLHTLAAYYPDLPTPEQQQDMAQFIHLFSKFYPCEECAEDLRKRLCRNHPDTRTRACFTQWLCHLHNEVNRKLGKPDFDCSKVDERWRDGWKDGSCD
# Ecoli rRNA inh OD600 – further read-out of Ecoli rRNA inh, marked with its call; OD600 change, %; measured here: OD600 growth;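 optical density of the mix in the first replicate; 0 = DMSO median and -100 = no signal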
# Ecoli rRNA inh RFP – further read-out of Ecoli rRNA inh, marked with its call; RFP signal change, %; measured here: RFP humanized mutant strains;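 first replicate; 0 = DMSO median and -100 = no signal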
# * hit, by the source's call; i = inactive; u = inconclusive; x = no result given. Only part of the results is shown, so the mix of outcomes need not match the whole.
SMILES,HNF4A DNA FP,Ecoli rRNA inh,Ecoli rRNA inh OD600,Ecoli rRNA inh RFP,AF4-AF9 inh,FGF22 binding,Ecoli growth,Vif A3G,ALR inh
c1ccc(-c2cc(-c3nn4c(-c5ccco5)nnc4s3)c3ccccc3n2)cc1,-8.8,x,x,x,x,x,0.789,5.9%,x
CO[C@H]1CN(C)C(=O)c2cc(NC(=O)c3ccccc3F)ccc2OC[C@H](C)N(C(=O)c2ccccc2F)C[C@H]1C,x,-2.2,-4.8,-1.4,2.0,i,x,x,x
CN(C)S(=O)(=O)c1ccc(NC(=O)CN2CCOCC2)cc1,3.0,11.8,11.1,-1.2,u,i,0.658,x,x
CCOc1ccc(-c2cc(CCCC(=O)NCCc3ccc(OC)c(OC)c3OC)no2)cc1,-0.4,x,x,x,x,x,0.753,1.8%,-10.7
CCC(=O)c1ccc(N2CCN(C(=O)COc3ccc(F)cc3)CC2)c(F)c1,0.1,x,x,x,x,x,0.759,-15.2%,-3.3
O=C(CCCn1nnc2ccccc2c1=O)N[C@@H](Cc1ccccc1)C(=O)O,3.5,14.1,3.4,-2.6,0.1,i,0.709,-9.4%,-8.7
CC(C)(C)N1C(=O)[C@H]2[C@@H](c3ccc(Br)cc3)N3C(=O)N(c4cccc(Cl)c4)C(=O)[C@@]3(C)[C@H]2C1=O,-2.0,1.9,3.6,2.5,-15.4,i,x,x,-11.4
O=C(C[C@@H]1C=C[C@@H](NC(=O)Nc2ccccc2F)[C@H](CO)O1)NCc1ccc(Cl)cc1,x,5.7,5.3,-1.4,-0.7,i,x,x,x
CCC(=O)Oc1ccc2c(C)c(Cl)c(=O)oc2c1,0.6,x,x,x,x,x,0.611,3.3%,11.2
CC1CCc2cc(F)ccc2N1C(=O)C12CCC(C)(C(=O)O1)C2(C)C (stereo not drawn),2.3,-5.0,-10.7,-2.3,-2.5,i,0.688,x,-0.4
Cn1c(CN2CCCC2)nc2cc(NS(=O)(=O)c3ccccc3)ccc21,0.1,7.4,1.2,-0.4,x,x,0.729,-0.7%,-12.6
CN(CC(=O)Nc1ccc(Cl)c(C(F)(F)F)c1)C(=O)c1cc(=O)c2ccccc2o1,2.4,3.5,2.4,-2.1,-1.1,i,0.67,-5.4%,-1.1
O=C(O)CC1Sc2nnc(COc3ccc(Cl)cc3)n2N=C1c1ccccc1 (stereo not drawn),-2.5,-0.6,3.1,4.8,0.4,i,0.679,1.4%,-2.9
Cc1ccccc1OCC(=O)OC(C)C(=O)NC1CCCC1 (stereo not drawn),-1.3,1.5,9.7,1.2,2.5,i,0.733,7.5%,-5.8
COc1cc2c(cc1OC)C1(CCCC1)C(N)=C2C#N,-0.9,x,x,x,x,x,0.769,17.4%,14.3
CC(C)Sc1nc2c(c(=O)[nH]1)C(c1cccs1)C1=C(CC(C)(C)CC1=O)N2 (stereo not drawn),-3.0,-2.7,-14.8,7.2,-4.3,i,0.695,-2.4%,-4.3
COc1ccc2c3c(n(C)c2c1)[C@@H](CO)N(C(=O)C1CCC1)CC31CCN(C)CC1,x,2.3,6.9,-1.8,2.9,i,x,x,x
Cc1cc(=O)oc2cc(OCC(=O)OCc3nnc(-c4ccccc4)o3)ccc12,0.7,x,x,x,x,x,0.708,-0.1%,-0.5
Cc1cc(C)c(C(=O)Nc2ccccc2)c(CC(C)(C)C(=O)O)c1,-3.5,14.7,-2.0,0.6,-1.4,i,0.675,x,-2.9
COc1ccc(OC)c(CN2CCN(C(=O)c3cccc(S(=O)(=O)Nc4ccc(C)cc4)c3)CC2)c1,-2.3,-4.5,-17.1,6.8,11.7,i,0.652,-5.0%,x
COc1ccc(CN(C)C(=O)c2ccccc2OCc2c(C)noc2C)cc1OC,-1.6,x,x,x,-0.1,i,0.66,2.3%,-10.8
CCNC(=O)Nc1ccc2c(c1)C(=O)N(C)[C@@H]1CC[C@@H](CC(=O)N[C@@H](C)c3ccccc3)O[C@@H]1CO2,x,0.5,-0.1,4.1,-0.3,i,x,x,x
CO[C@@H]1CC[C@@H]2CCOc3ccc(C#N)cc3C(=O)N(C)C[C@@H](C)C(=O)N(C)C[C@@H]1O2,x,3.0,-3.3,2.6,3.4,i,x,x,x
CCn1nc(C)c(Br)c1-c1nc(-c2ccc(C)cc2)no1,-6.1,18.3,3.8,2.2,-9.2,i,0.681,-6.0%,-3.2
C[C@H](CO)N1C[C@H](C)[C@@H](CN(C)C(=O)NC2CCCCC2)Oc2ccc(NC(=O)CCCCCC(=O)Nc3ccccc3N)cc2CC1=O,x,-0.6,-1.2,-1.1,1.8,i,x,x,x
COc1ccc(-c2ccc([C@@H]3[C@@H](C#N)N(C(=O)NC4CCCCC4)[C@H]3CO)cc2)cc1,x,8.7,19.5,3.4,-0.7,i,x,x,x
O=C(COc1ccc(-c2nnco2)cc1)NC1CCCc2ccccc21 (stereo not drawn),-0.3,x,x,x,x,x,0.688,7.8%,x
Cc1noc(C(=O)Nc2ccc3c(c2)OCO3)c1Cl,-2.5,5.9,3.9,1.6,10.9,i,0.745,19.0%,x
N#CC(C#N)=C1C=CC=CN1/C(=C\c1ccco1)C(=O)c1ccc(Cl)cc1,1.1,-10.7,-9.8,16.0,6.0,i,0.648,13.2%,x
CC(=O)Nc1ccc(Nc2nc(-c3sc(NC(C)=O)nc3C)cs2)cc1,-0.6,-8.6,-1.3,0.2,5.3,i,x,-1.4%,34.4
CO[C@@H]1CN(C)C(=O)c2cc(NC(=O)c3ccccc3)ccc2OC[C@H](C)N(C(=O)CN(C)C)C[C@H]1C,x,1.9,3.4,-2.2,-1.0,i,x,x,x
CCOc1ccccc1NS(=O)(=O)c1ccc2[nH]c(=O)[nH]c2c1,-0.8,3.5,0.4,-2.5,-2.4,i,0.716,u,3.0
COc1ccc2c3c(n(C)c2c1)[C@@H](CO)N(Cc1ccccc1OC)CC31CCN(C(=O)C2CC2)CC1,x,1.5,-3.7,1.5,1.4,i,x,x,x
CCOC(=O)c1sc(C)c(C(=O)NC2CCCCC2)c1N,-1.6,x,x,x,x,x,0.761,-4.0%,x
CN(c1cccc(NC(=O)CCSc2ccccc2)c1)S(C)(=O)=O,3.0,0.8,-0.6,3.9,0.6,i,0.639,4.0%,-4.6
Cc1cccc(C(=O)Nc2ccnc(-c3cccnc3)n2)c1,1.4,5.2,0.2,-1.6,-1.6,i,0.668,-9.9%,x
CCOc1cc(/C=N/NC(=O)CN(CCc2ccccc2)S(=O)(=O)c2ccc(NC(C)=O)cc2)ccc1O,2.1,x,x,x,x,x,x,-0.2%,54.6
Cc1ccccc1C(=O)Nc1ccc2nc3n(c(=O)c2c1)CCC3,2.5,-4.4,-0.8,-1.7,-7.2,i,0.749,-2.6%,-16.8
O=C(Cc1ccccn1)NCC[C@H]1CC[C@H](NS(=O)(=O)c2ccccc2)[C@@H](CO)O1,x,-0.3,0.3,-1.2,0.0,i,x,x,x
CC(C)NCc1cc(Br)ccc1OCc1ccccc1,-3.9,11.9,5.5,-5.3,-2.6,i,0.676,0.0%,-4.3
CCOc1cc(S(=O)(=O)N(CC)CC)ccc1F,2.8,x,x,x,x,x,0.689,-0.5%,2.8
CCc1c(C(=O)NCCc2cccc(C)c2)[nH]c(C)c1C(C)=O,0.8,-4.0,-13.1,-2.2,-0.4,i,x,0.8%,-10.1
C[C@@H]1CCCCO[C@@H](CN(C)Cc2ccncc2)[C@@H](C)CN([C@@H](C)CO)C(=O)c2cc(NC(=O)NC3CCCCC3)ccc2O1,x,1.7,8.5,1.2,-6.5,i,x,x,x
CCOc1nc(NC(=O)NC(=O)c2ccccc2)nc(-c2ccccc2)n1,-2.4,16.6,10.9,9.6,-11.5,i,0.686,16.3%,-2.0
Nc1nc2ccc(Cc3ccncc3)cc2s1,-3.1,2.1,0.9,1.0,-2.1,i,0.678,x,-6.0
CCc1ccc(NC(=O)Cc2c(C(=O)O)n(C)c3ccccc23)cc1,-0.6,-37.8,-47.6,-9.4,-1.5,x,0.718,11.0%,2.0
COC(=O)CN=Cc1c(O)n(-c2ccc(Cl)cn2)c(=O)c2ccccc12,2.4,-0.1,-8.1,0.4,-0.3,i,0.699,1.3%,-5.4
CCOC(=O)c1ccc(NC(=O)NCc2ccccn2)cc1,2.1,-5.2,-7.4,2.3,-11.5,i,0.625,3.1%,5.6
Cc1ccc2c(c1)C(=O)C(=O)N2Cc1ccc(Cl)cc1,-0.1,5.2,-16.6,31.8,5.4,i,0.699,x,-2.5
COc1cccc(-c2ccc(C#N)c(SCC(=O)NCCc3ccccc3)n2)c1,-3.1,6.8,6.9,0.3,-16.1,i,0.675,x,-4.1
CCc1ccc(OCC(=O)NNC(=O)C2CCC2)cc1,0.9,3.6,-4.6,-0.2,-7.7,i,0.697,5.0%,1.3
CCCNC(=O)COc1ncnc2sc(C)c(C)c12,1.4,x,x,x,x,x,0.691,2.6%,x
O=C(N/N=C/c1cc2c(cc1Br)OCO2)c1cc2ccccc2o1,2.2,-2.5,9.4,-6.0,-2.7,i,x,x,-9.9
Cc1nnc(N(CCC#N)CCC#N)s1,-1.5,x,x,x,x,x,0.715,-7.7%,-0.9
O=C(Nc1nncs1)C1COc2ccccc2O1 (stereo not drawn),-1.1,x,x,x,x,x,0.654,-0.8%,-8.4
CCOC(=O)C1=NN(C(=O)Cc2ccccc2)C(O)(c2ccc(Cl)cc2)C1 (stereo not drawn),-1.2,x,x,x,x,x,0.629,20.7%,18.9
O=C(C[C@H]1CC[C@@H](NC(=O)C2CC2)[C@@H](CO)O1)NC1CCC1,x,0.7,-3.6,0.7,0.8,i,x,x,x
O=C(c1ccccc1)C1CN(c2ccccc2)CC1c1ccc(Cl)cc1 (stereo not drawn),0.4,x,x,x,x,x,x,5.8%,-3.9
C/C=C(\C)CN1CCC(n2nccc2NC(=O)c2ccc3c(c2)OCO3)CC1,5.1,7.0,7.5,-3.2,2.5,i,0.715,-11.3%,-12.0
CO[C@@H]1CN(C)C(=O)c2ccc(NS(C)(=O)=O)cc2OC[C@@H](C)N(C(=O)C2CC2)C[C@H]1C,x,-0.4,1.1,-1.3,0.9,i,x,x,x
COC(=O)c1nc(-c2ccccc2)oc1N1CCOCC1,2.2,2.2,10.7,-5.0,-0.4,i,0.687,x,-1.6
COc1ccc(-c2csc(C(C)(O)c3ccccc3)n2)cc1OC (stereo not drawn),0.9,1.3,1.1,2.2,0.0,i,x,x,x
CC(=O)C1=C(c2ccccc2)NC(=O)NC1c1ccccc1 (stereo not drawn),2.5,4.3,1.9,-0.7,-0.6,i,0.681,x,1.1

# Among those listed so far, these contain a furan ring, fused or not.
SMILES,HNF4A DNA FP,Ecoli rRNA inh,Ecoli rRNA inh OD600,Ecoli rRNA inh RFP,AF4-AF9 inh,FGF22 binding,Ecoli growth,Vif A3G,ALR inh
c1ccc(-c2cc(-c3nn4c(-c5ccco5)nnc4s3)c3ccccc3n2)cc1,-8.8,x,x,x,x,x,0.789,5.9%,x
N#CC(C#N)=C1C=CC=CN1/C(=C\c1ccco1)C(=O)c1ccc(Cl)cc1,1.1,-10.7,-9.8,16.0,6.0,i,0.648,13.2%,x
O=C(N/N=C/c1cc2c(cc1Br)OCO2)c1cc2ccccc2o1,2.2,-2.5,9.4,-6.0,-2.7,i,x,x,-9.9

# High-throughput results deposited in PubChem BioAssay by several laboratories.
